# CDC25B-CDK2 inh = human CDC25B-CDK2/CyclinA binding inhibition. P30305+P24941. HTRF CDC25B-CDK2/CyclinA binding, anti-His/anti-Flag; stronger effect = higher value. z-score (no concentration beside the values). actives 0.72% (n = 94,000);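 also: score is relative to mean and SD of negative controls; strong numbers were not always called active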
# TAR Tat displ = HIV-1 TAR-Tat binding disruption. z-score (test concentration not listed). HIV-1 TAR RNA, Tat peptide displacement FRET; stronger effect = higher value. actives 0.6% (n = 100,000);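 also: score is relative to mean and SD of negative controls; some compounds called inactive have numbers as strong as hits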
# Starred values were filed as active, the others as inactive; · = not tested or not shown.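 The calls were made as follows: active = z-score from 3 up in half or more of its runs; inactive = the rest.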
SMILES,CDC25B-CDK2 inh,TAR Tat displ
Cc1cc(C)cc(-n2c(SCC(=O)Nc3ccc(F)cc3F)nc3c(c2=O)SC(C)C3)c1 (configuration not stated),-0.7,1.2
Cn1cc(-c2cc3n(n2)CCCN3C(=O)CCC(=O)N2CCN(c3ccccn3)CC2)c2ccccc21,·,1.2
CC1(C)CC(=O)C2=C(C1)Nc1cc3c(cc1C2c1cccc(F)c1)OCO3 (configuration not stated),0.8,·
CCOC(=O)/C(C#N)=C/NC1CCN(Cc2ccccc2)CC1,-5.5,·
O=S1(=O)C[C@H](NCc2ccco2)[C@@H](S(=O)(=O)c2ccc(Cl)cc2)C1,-0.83,-1.1
CCOc1ccc(C2c3c(oc4ccccc4c3=O)C(=O)N2c2nnc(C(C)C)s2)cc1OC (configuration not stated),-0.71,3.6
Cc1cc(C)nc(N2CCN(c3cc(C)nc4c(-c5ccc(F)cc5)cnn34)CC2)n1,-3.2,-0.08
CCc1nn(CC(=O)NC(C)CC)c(=O)c2cc3occc3n12 (configuration not stated),-1.2,2.5
Cc1nnc(SCC(=O)Nc2ncc3c(n2)CC(c2ccco2)CC3=O)s1 (configuration not stated),4.2,-1.4
CCN(CC)c1nc(C)nc2c1sc(=S)n2-c1ccccc1,-1.6,·
CCOCCCN=C1NS(=O)(=O)C(c2ccccc2)=C1C,0.39,-1.1
COc1ccc2ncc3c(c2c1)-c1cc(Cl)ccc1OC3,-0.18,·
COc1ccc(N2C(=O)c3cccnc3C2Nc2cccc(OC)c2)cc1 (configuration not stated),·,-0.59
CC(C)OCCCn1c(=O)c2ccccc2n2c(CCC(=O)NC3CC3)nnc12,-2.2,-0.13
Cc1ccccc1CN1CCc2nc(N3CCC(C)CC3)ncc2C1,·,-0.08
CN1CCN(C2=Nc3cc(F)ccc3Cc3ccccc32)CC1,·,1.1
O=C1NC(=O)/C(=C/c2ccc(-c3ccc(F)cc3O)o2)S1,0.33,·
CCc1n(CC(O)COCc2ccccc2)c2ccccc2[n+]1C (configuration not stated),0.21,0.32
O=C(NCc1ccco1)C1CCN(C(=O)c2cc3sccc3n2Cc2ccc(F)cc2)CC1,-2.6,·
Cc1nn(-c2nncc(-c3ccccc3)n2)c2c1C(c1ccc(Br)cc1)CC(=O)N2 (configuration not stated),-1.7,0.55
O=C(Cn1nc(C(F)(F)F)c2c1CCC2)Nc1ccc2c(c1)OCO2,0.59,1.2
COC(=O)c1c(C)oc2cc(Br)c(OCc3ccc(F)cc3)cc12,-0.98,0.55
Cc1ccc(Cl)cc1-n1ncc2c(NCc3cccnc3)ncnc21,·,0.72
CCCS(=O)(=O)Nc1ccc(-c2ccc(OC)nn2)cc1,·,1.5

# Six entries from above, with bars between the fields.
canonical_smiles | CDC25B-CDK2 inh | TAR Tat displ
COc1ccc2ncc3c(c2c1)-c1cc(Cl)ccc1OC3 | -0.18 | ·
COc1ccc(N2C(=O)c3cccnc3C2Nc2cccc(OC)c2)cc1 (configuration not stated) | · | -0.59
CC(C)OCCCn1c(=O)c2ccccc2n2c(CCC(=O)NC3CC3)nnc12 | -2.2 | -0.13
Cc1ccccc1CN1CCc2nc(N3CCC(C)CC3)ncc2C1 | · | -0.08
CN1CCN(C2=Nc3cc(F)ccc3Cc3ccccc32)CC1 | · | 1.1
O=C1NC(=O)/C(=C/c2ccc(-c3ccc(F)cc3O)o2)S1 | 0.33 | ·

# (continued)
SMILES,CDC25B-CDK2 inh,TAR Tat displ
COC(=O)c1sc(N2C(=O)c3oc4ccccc4c(=O)c3C2c2cccc(Cl)c2)nc1C (configuration not stated),-0.49,-0.12
Cc1nnc(N2CCC(C(=O)O)CC2)c2nn(-c3ccccc3)c(C)c12,0.88,1.2
CN1C(=O)c2[nH]nc(-c3ccc(F)cc3)c2C1c1cccc(O)c1 (configuration not stated),0.26,0.65
O=C(NCc1cccs1)c1csc(Cc2c(Cl)cccc2Cl)n1,-1.3,·
CCCN(c1nc2nc(C)cc(C)n2n1)S(=O)(=O)c1ccccc1,-0.74,0.68
O=C(Oc1nsnc1N1CCOCC1)N(c1ccccc1)c1ccccc1,0.18,·
CC(=O)N1CCC(C(=O)Nc2ccc(-c3cnco3)cc2)CC1,-3.1,·
O=C1CC2(CCCC2)C(=O)N1CCNc1ncccc1C(F)(F)F,-3.8,·
Cn1cc(-c2cc3n(n2)CCC(=O)N3CCCC(=O)N2CCN(c3ccccn3)CC2)c2ccccc21,·,0.71
CC(C)c1ccc(Cc2cn3cc(-c4ccccc4)nc3s2)cc1,-1.6,0.35
O=C(Nc1c(C(=O)c2ccc(Br)cc2)oc2ccccc12)c1ccco1,-1.7,2.2
O=c1c(-c2ccc(Cl)cc2)c(C(F)(F)F)oc2c(CN3CCCC3)c(O)ccc12,0.33,1.5
O=C(c1ccccc1Br)N1CCn2c1nc1ccccc12,-1,-0.95
CC1CCc2nn(CC(=O)NCc3ccccn3)cc2C1 (configuration not stated),-1.6,-1.9
O=C(Nc1ccc(Cl)cn1)c1ccc(Br)cc1,-0.85,0.88
Cc1cc(C(F)(F)F)c2c(C)nn(-c3cccc(Cl)c3)c2n1,-2.1,-1.2
Cc1cccn2c(=O)c(C(=O)NCCC(C)C)cnc12,·,2.2
COC(=O)c1cnc(N2CCCN(C(=O)c3cc(C(C)(C)C)nn3C)CC2)nc1C(F)(F)F,-1.7,·
CC(=O)NC(Nc1ccccc1)(C(F)(F)F)C(F)(F)F,-1.9,·
O=C(Nc1ccccc1OCc1cc(=O)n2ccccc2n1)C1CCCCC1,·,-0.36
CCC(C(=O)N1CCOCC1)n1ccc2cc(S(=O)(=O)N3CCCCC3)ccc21 (configuration not stated),·,-0.05
O=C1C2CCCCC2C(=O)N1c1ccc(Cl)cc1O (configuration not stated),-0.4,-0.45
CCOC(=O)C1=C(C)NC2=C(C(=O)c3ccccc32)C1c1cc(Br)c(OCC)c(OC)c1 (configuration not stated),-0.04,1.8
CCOC(=O)c1c(C)sc(/C=N/Nc2ccccc2)c1O,-1.8,·
CN1CCN(c2ccccc2NC(=O)C2CCN(c3ncnc4c3nc3n4CCCCC3)CC2)CC1,·,0.28
Cn1ncc2c(NCCc3ccc(Cl)cc3)ncnc21,·,-1
Cn1cnc(S(=O)(=O)N2CCCC(C(=O)N3CCc4ccccc43)C2)c1 (configuration not stated),·,0.89
Cc1cc(C)c(S(=O)(=O)Nc2ccc3c4c(cc(=O)n3C)-c3ccccc3C(=O)c24)cc1C,0.54,-2
CC(=O)SC1CC(=O)N(c2ccc(Cl)cc2)C1=O (configuration not stated),-1.3,·
O=C(Cn1ncn2c(cc3sccc32)c1=O)NCCc1ccccc1,-1.1,-0.82
Cc1c(C(=O)Nc2ccc(S(N)(=O)=O)cc2)sc2nc3n(c(=O)c12)CCCC3,·,2.1
CCOc1ccccc1N1C(=O)c2ccncc2C1=O,·,-0.2
CCCOCC1CC2(CC(C)(c3csc(Nc4ccccc4OC)n3)OC2=O)C(=O)O1 (configuration not stated),0.03,·
COc1ccc(-c2cc(C(F)(F)F)[nH]n2)cc1OC,-1,·
COc1ccc(CCN(C)CCCC(C#N)(c2cc(OC)c(OC)c(OC)c2)C(C)C)cc1OC (configuration not stated),-1.4,·
CCn1nc(NS(=O)(=O)c2ccccc2)c2cc3cccc(C)c3nc21,-3.2,2.1

# The closing six compounds of the section before open the next one:
SMILES,CDC25B-CDK2 inh,TAR Tat displ
Cc1c(C(=O)Nc2ccc(S(N)(=O)=O)cc2)sc2nc3n(c(=O)c12)CCCC3,·,2.1
CCOc1ccccc1N1C(=O)c2ccncc2C1=O,·,-0.2
CCCOCC1CC2(CC(C)(c3csc(Nc4ccccc4OC)n3)OC2=O)C(=O)O1 (configuration not stated),0.03,·
COc1ccc(-c2cc(C(F)(F)F)[nH]n2)cc1OC,-1,·
COc1ccc(CCN(C)CCCC(C#N)(c2cc(OC)c(OC)c(OC)c2)C(C)C)cc1OC (configuration not stated),-1.4,·
CCn1nc(NS(=O)(=O)c2ccccc2)c2cc3cccc(C)c3nc21,-3.2,2.1
O=C(Nc1ccc2sc(NS(=O)(=O)c3ccccc3)nc2c1)NC1CCCC1,·,2.4
Cc1ccc2[nH]c(CSc3nnc(C)n3C)cc(=O)c2c1,·,-0.07
Cc1oc2ncn(CC(=O)NCCN(C)C)c(=O)c2c1C,·,0.75
NC(=S)Cc1c(Cl)cccc1Cl,-0.58,·
CCCS(=O)(=O)c1ncc(Cl)c(C(=O)N(Cc2ccco2)C2CCS(=O)(=O)C2)n1 (configuration not stated),-1.8,0.98
Nc1ccc(-c2nnc(Nc3ccccc3C(F)(F)F)s2)cc1,-0.61,·
COc1ccc(C(=O)OCc2cc(=O)n3c4c(sc3n2)CCCC4)cc1OC,·,-0.74
COc1ccc(OC)c(NS(=O)(=O)c2ccc(-n3cccn3)cc2)c1,·,1.4
COC(=O)c1c(C)nn(-c2ccc(F)cc2)c1-n1cccc1,0.34,0.64
CCOC(=O)N1CCC(NC(=O)Cc2sc(C)nc2-c2cccs2)CC1,-1.1,0
CCN1C(=O)c2cc(C(=O)NCCc3cccs3)nn2CC1(C)C(=O)NC1CCCC1 (configuration not stated),·,0.32
CCN(CC)CCSc1nc2cc(C)c(C)cc2[nH]1,0.62,1.4
CC(OC(=O)c1cccc(N2C(=O)C3CC=CC(C)C3C2=O)c1)C(=O)c1ccccc1 (configuration not stated),-3.7,-0.3
N#Cc1c(C(F)(F)F)cc(-c2cccs2)nc1SCC(=O)Nc1ccccc1,-4.1,·
CC1=C(c2ccc(F)cc2)S(=O)(=O)N=C1N1CCN(Cc2ccccc2)CC1,·,1.7
O=S1(=O)C[C@H](NCCCc2ccccc2)[C@@H](S(=O)(=O)c2ccc(F)cc2)C1,-0.53,1.2
CSc1sc(Br)c2c1/C(=N/OC(C)=O)CC(C)(C)C2,-0.05,·
O=C(O)CCN1C(=O)SC(Nc2ccccc2)C1=O (configuration not stated),-1.2,·
CC1CCCN(S(=O)(=O)c2ccc(C(=O)Nc3nnc(-c4ccc(F)cc4)o3)cc2)C1 (configuration not stated),0.54,·
Cc1cc(C)c([N+](=O)[O-])c(S(=O)(=O)c2ccccc2)c1,-0.56,·
COCCN1C(=O)c2oc3cc(C)c(C)cc3c(=O)c2C1c1cccc(O)c1 (configuration not stated),-0.44,1.1
COc1ccc(O)c(C2=NN3C(C2)c2cccc(OC)c2OC3c2cccc(OC)c2OC)c1 (configuration not stated),-1.6,0.16
Cc1cc(C)c2nc3s/c(=C\c4ccc(-c5ccccc5C(=O)O)o4)c(=O)n3c2c1,1.6,·
CC1CCN(S(=O)(=O)c2ccc(Oc3ccc(S(=O)(=O)N4CCC(C)CC4)cc3)cc2)CC1,·,1

# Looked up above:
# `CCc1n(CC(O)COCc2ccccc2)c2ccccc2[n+]1C` (configuration not stated) – TAR Tat displ = 0.32
# `Cn1cnc(S(=O)(=O)N2CCCC(C(=O)N3CCc4ccccc43)C2)c1` (configuration not stated) – TAR Tat displ = 0.89
# `CCOC(=O)C1=C(C)NC2=C(C(=O)c3ccccc32)C1c1cc(Br)c(OCC)c(OC)c1` (configuration not stated) – TAR Tat displ = 1.8

# Next records
SMILES,CDC25B-CDK2 inh,TAR Tat displ
O=C(CN(C1=NC2CS(=O)(=O)CC2S1)c1ccccc1F)Nc1ccccc1 (configuration not stated),-1.3,-0.42
COc1ccc2c(c1OC)C(=O)OC2OC(C)=O (configuration not stated),-0.54,·
Cc1cc(NC(=O)CN(C2=NC3CS(=O)(=O)CC3S2)c2ccc(C(C)C)cc2)n[nH]1 (configuration not stated),-1.9,0.69
CCOc1ccc(S(=O)(=O)[C@H]2CS(=O)(=O)C[C@@H]2NCCC2=CCCCC2)cc1,-1.3,0.27
CCC(CC)C(=O)Nc1ccccc1SCc1cc(=O)n2oc(C)cc2n1,·,0.7
Cc1nnc(Oc2cccc(F)c2)c2ccccc12,·,1.9
Cn1c(O)c(C2=Nc3ccccc3SC(c3ccccc3)C2)c(=O)[nH]c1=O (configuration not stated),-0.8,1.5
Cc1ccn2c(=O)c(NC(=O)c3ccc(C(C)(C)C)cc3)c(C)nc2c1,·,2.1
Cn1c(CSCC(=O)Nc2ccccc2)nnc1SCc1ccc(Cl)cc1,-0.83,·
COC(=O)c1ccc(Cl)cc1NC(=O)Nc1nnc(N2CCCC2)s1,0.12,0.75
O=C(CCc1nnc2ccc(N3CCCC3)nn12)Nc1ccc2c(c1)OCO2,·,0.58
COc1ccccc1OCC(=O)O,0.53,0.09
Cc1ccc(/C(O)=C2\C(=O)C(=O)N(CCN3CCOCC3)C2c2cccs2)cc1 (configuration not stated),0.01,1.3
CN1CCN(Cc2nc3c(c(=O)n(C)c(=O)n3C)n2CCCc2ccccc2)CC1,-0.03,-0.88
CCN1C(=O)C2(/C(=C(/O)c3ccc4c(c3)CC(C)O4)C(=O)C(=O)N2CCN(C)C)c2ccccc21 (configuration not stated),-0.69,-0.09
CCOC(=O)N1CCC(Nc2c(N3CCN(c4ccc(F)cc4)CC3)c(=O)c2=O)CC1,-0.95,-0.9
CCOC(=O)N1CCC(N2C(=O)c3ccccc3C2Nc2ccccc2OCC)CC1 (configuration not stated),-1.2,0.66
Cc1c(C(=O)NC2CC2)sc2nc3n(c(=O)c12)CCCC3,·,0.02
Cc1nc2ccccc2n1CCc1nc2c3ccccc3nc(NCCCOC(C)C)n2n1,-1.7,-0.35
CCS(=O)(=O)NCCc1csc(-c2ccc(Cl)cc2)n1,·,0.42
Cc1c(C)n(-c2ccccc2)c2ncn(CC(=O)N(C)Cc3ccco3)c(=O)c12,·,1.6
CSc1ccc(C2NC(=O)c3c(sc4c3CCCC4)N2)cc1 (configuration not stated),-2,-2.4
CSc1cccc(-n2nnc(C(N)=O)c2C)c1,-1.8,0.19
CCCCc1nc2n[nH]c(N)c2c2c1CCCC2,0.11,·
COCc1nn2c(=O)c(NC(=O)c3ccc(OC)c(OC)c3)cnc2s1,-1.5,1.5
COc1ccc(Cn2nnc3c(C)nn4c(-c5cccs5)nnc4c32)cc1,-1.6,1.1
CC(=O)N1CCc2cc(Br)cc(S(=O)(=O)N3CCCCCC3)c21,-2,·
Cc1ncc(-c2ccc(C)c(S(=O)(=O)NC3CCCc4ccccc43)c2)o1 (configuration not stated),·,1.5

# From PubChem BioAssay
